FGF22 binding = shifts melting point of recombinant human FGF22 | 340,000 compounds, 1.5% hits | recombinant FGF22 thermal shift, SYPRO orange fluorescence; percent of sucrose octasulfate shift, DMSO zero | AID 651658 | Q9HCT0 | calls only at 9.99 µM;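 active means melting point raised past a set limit in the mean and every replicate; three in four hits are not shown here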
Target sequence (Q9HCT0 whole entry, looked up): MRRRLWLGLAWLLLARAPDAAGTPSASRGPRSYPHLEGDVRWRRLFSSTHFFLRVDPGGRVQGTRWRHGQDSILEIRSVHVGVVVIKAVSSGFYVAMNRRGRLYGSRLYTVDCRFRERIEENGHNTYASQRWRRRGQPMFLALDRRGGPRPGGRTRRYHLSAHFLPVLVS
rRNA inh HTS = inhibitors of bacterial rRNA selective over humanized ribosomes. E. coli WT GFP vs humanized-ribosome RFP mutants, fluorescence, 24 h; active compounds read low; DMSO median 0, no signal -100. AID 720706. GFP signal change (wild-type ribosome), % (no concentration beside the values). 350,000 compounds, 1.6% hits;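 active means significant combined selectivity score with lowered wild-type GFP, culture density cut under 30%, mutant RFP and density less affected; inactive means any of these conditions unmet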; further: one replicate is shown; some compounds called inactive have numbers as strong as hits
UCH37 inh = human UCH37 deubiquitinating enzyme inhibition; purified proteasome/UCH37, Ub-AMC cleavage fluorescence; AID 588478; 330,000 compounds, 0.33% hits; inhibition, % (test concentration not listed);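 active means mean of two replicates above 20%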;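 further: 0% = compound-free wells with enzyme and 100% = wells lacking proteasome; stock transfer was 100 nL into about 20 µL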
Target sequence (Q9Y5K5 whole entry, looked up): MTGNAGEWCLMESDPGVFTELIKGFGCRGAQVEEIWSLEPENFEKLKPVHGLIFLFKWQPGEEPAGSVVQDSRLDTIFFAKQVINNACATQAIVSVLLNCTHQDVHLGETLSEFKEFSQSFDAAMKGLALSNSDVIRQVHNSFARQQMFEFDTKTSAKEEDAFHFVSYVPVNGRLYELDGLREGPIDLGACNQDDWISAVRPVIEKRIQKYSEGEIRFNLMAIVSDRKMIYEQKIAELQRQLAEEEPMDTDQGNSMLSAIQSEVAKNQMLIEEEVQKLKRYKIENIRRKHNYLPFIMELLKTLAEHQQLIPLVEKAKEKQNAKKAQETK
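Material: human UCH37 enzyme supplied as purified proteasome complex / Amount: 0.15 nM proteasome as dispensed / Buffer or medium: pH 7.4 Tris-HCl (50 mM) with ovalbumin, ATP-MgCl2, DTT / Times: preincubation 30 min, reaction 25 min, room temperature / Technique: AMC fluorescence from Ub-AMC cleavage, excitation 355 nm, emission 460 nm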
E coli growth = inhibitors of Escherichia coli growth; OD600, 23 h; active compounds read low; OD600 absorbance (test concentration not listed); 330,000 compounds, 0.21% hits; AID 1053175;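 active means OD600 absorbance below the run mean of sample wells minus 3.6 SD, in any replicate, cut at about 0.56 in these data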;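 further: stock transfer was 300 nL into about 60 µL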
ALR inh = human ALR oxidase inhibition via reduced H2O2 | P55789 | purified ALR, DTT oxidation, H2O2 HRP-luminol luminescence | inhibition, % (concentration not given with the values) | 290,000 compounds, 3.8% hits | AID 485317;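 active means mean and each replicate at 75% or more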;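 further: stock transfer was 7.5 nL into about 7.5 µL; 0% = neutral wells and 100% = wells with inactivated enzyme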
Target sequence (P55789 whole entry, looked up): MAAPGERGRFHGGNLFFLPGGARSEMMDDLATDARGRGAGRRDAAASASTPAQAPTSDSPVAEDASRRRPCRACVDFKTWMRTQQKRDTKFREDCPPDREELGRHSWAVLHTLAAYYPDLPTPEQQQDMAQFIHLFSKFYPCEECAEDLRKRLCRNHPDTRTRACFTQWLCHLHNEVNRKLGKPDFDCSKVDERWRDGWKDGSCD
rRNA inh HTS OD600 = recorded beside rRNA inh HTS, whose call it bears; OD600 change, %; measured here: OD600 growth;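 optical density of the mix in the first replicate; 0 = DMSO median and -100 = no signal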
rRNA inh HTS RFP = also measured in rRNA inh HTS; calls as there; RFP signal change, %; measured here: RFP humanized mutant strains;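 first replicate; 0 = DMSO median and -100 = no signal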
Numbers without * were called inactive; i = inactive; . = not tested or not shown; & = joins results of further samples. A portion of the library (hit frequency here may not be typical).

Each structure is followed by: rRNA inh HTS	E coli growth	FGF22 binding	rRNA inh HTS RFP	UCH37 inh	ALR inh	rRNA inh HTS OD600
> CC1=CC(=C2C(=O)NC(=S)NC2=O)C=C(C(F)(F)F)N1CCc1ccccc1
    .	.	.	.	.	-4.8	.
> Cc1ccccc1N1C(=O)/C(=C/c2ccco2)C(=O)NC1=S
    .	.	.	.	.	14.4	.
> COc1ccc(OCCOc2cccc(C=C3C(=O)NC(=O)NC3=O)c2)cc1
    .	.	.	.	.	7.0	.
> CC[C@@]1(O)C(=O)OCc2c1cc1n(c2=O)Cc2cc3ccccc3nc2-1
    .	.	.	.	.	-14.6	.
> Cc1cc(OCCN2CC2)c2ccccc2n1
    .	.	.	.	.	-9.5	.
> O=C1Nc2cc(C(=O)N3CCC4(CC3)OCCO4)ccc2NC1CSCc1cccc(F)c1 (centres undefined)
    .	.	.	.	.	53.5	.
> COc1ccc(CNCCc2cccc(F)c2)c2ccccc12
    .	.	.	.	.	7.1	.
> CN1C(=O)C(Cc2ccc3c(c2)OCO3)C(=O)N(C)C1=O
    .	.	.	.	.	-13.9	.
> Cc1ccc(N2C(=O)NC(=O)/C(=C\c3ccc([N+](=O)[O-])o3)C2=O)cc1
    .	.	.	.	.	-13.7	.
> O=C1/C(=C/c2cc3c(cc2Cl)OCO3)N2CCC1CC2
    .	.	.	.	.	-4.5	.
> Cc1ccc(-n2c(/C=C/c3ccc4c(c3)OCO4)nc3ccccc3c2=O)cc1
    .	.	.	.	.	-3.1	.
> O=C1NC(=S)N(c2ccc(F)cc2)C(=O)/C1=C/c1ccco1
    .	.	.	.	.	92.6*	.
> C=C1C[C@@H]2[C@H](CC[C@]3(C)C(=O)CC[C@@H]23)[C@@]2(C)C=CC(=O)C=C12
    .	.	.	.	.	1.2	.
> COc1ccc2[nH]cc(C3=CCNCC3)c2c1
    .	.	.	.	.	96.6*	.
> O=C(O)Cn1cc(/C=C2\C(=O)NC(=O)N(c3ccc(F)cc3)C2=O)c2ccccc21
    .	.	.	.	.	-15.0	.
> C[C@H]1CCCC(=O)CCCC=Cc2cc(O)cc(O)c2C(=O)O1
    .	.	.	.	4.7	.	.
> O=C(Cc1cccnc1)N1CCCCN2[C@H](CO)[C@@H](c3ccc(C#CC4CC4)cc3)[C@@H]2C1
    .	.	i	.	.	.	.
> COC(=O)[C@@H]1[C@@H](CO)[C@@H]2Cn3c(cccc3=O)[C@H]1N2C(=O)C1CCC1
    .	.	i	.	.	.	.
> O=C(NCCN1CCC2(CC1)C(=O)NCN2c1ccccc1)c1cccnc1Cl
    .	.	i	.	.	.	.
> O=C(Cc1cccnc1)N1CCCCN2[C@H](C1)[C@H](c1ccc(C#CC3CC3)cc1)[C@@H]2CO
    .	.	i	.	.	.	.

Arranged by length of the SMILES (rising): 5 of the compounds above
Each structure is followed by: rRNA inh HTS	E coli growth	FGF22 binding	rRNA inh HTS RFP	UCH37 inh	ALR inh	rRNA inh HTS OD600
> Cc1cc(OCCN2CC2)c2ccccc2n1
    .	.	.	.	.	-9.5	.
> COc1ccc(OCCOc2cccc(C=C3C(=O)NC(=O)NC3=O)c2)cc1
    .	.	.	.	.	7.0	.
> CC[C@@]1(O)C(=O)OCc2c1cc1n(c2=O)Cc2cc3ccccc3nc2-1
    .	.	.	.	.	-14.6	.
> O=C1Nc2cc(C(=O)N3CCC4(CC3)OCCO4)ccc2NC1CSCc1cccc(F)c1 (centres undefined)
    .	.	.	.	.	53.5	.
> C=C1C[C@@H]2[C@H](CC[C@]3(C)C(=O)CC[C@@H]23)[C@@]2(C)C=CC(=O)C=C12
    .	.	.	.	.	1.2	.

Remaining list, next part:
Each structure is followed by: rRNA inh HTS	E coli growth	FGF22 binding	rRNA inh HTS RFP	UCH37 inh	ALR inh	rRNA inh HTS OD600
> COc1cccc(-c2ccc3n(c2=O)C[C@@H]2[C@@H](CO)[C@H](C(=O)O)[C@H]3N2Cc2ccccc2F)c1
    2.7	.	.	-1.1	.	.	-2.0
> Cc1ccc(OC(=O)N(C)C[C@H]2OCc3ccccc3-c3c(n(C)c4ccccc34)C(=O)N([C@@H](C)CO)C[C@@H]2C)cc1
    -2.5	.	.	-0.9	.	.	2.3
> CN1[C@@H]2CN(S(C)(=O)=O)C[C@H]1C2c1ccccc1 (some centres undefined)
    1.3&2.3	.	.	-0.3&-0.8	.	.	1.5&5.8
> C/C=C/c1ccc(C2[C@@H]3CN(C(=O)CN(C)C)C[C@H]2N3)cc1 (some centres undefined)
    8.3&6.2	.	.	0.5&-4.1	.	.	26.9&12.3
> O=C(Cc1ccccc1)N1CCCCN2[C@H](CO)[C@@H](c3ccc(C#CC4(O)CCCC4)cc3)[C@@H]2C1
    0.9	.	.	-0.2	.	.	-6.6
> COC(=O)[C@@H]1[C@@H](CO)[C@@H]2Cn3c(ccc(C4=CCCC4)c3=O)[C@H]1N2CC1CCCC1
    1.4	.	.	-1.5	.	.	-1.3
> CC=Cc1ccc2n(c1=O)C[C@@H]1[C@@H](CO)[C@H](C(=O)OC)[C@H]2N1CC1CCCC1 (mixture of isomers)
    -1.5	.	.	-1.3	.	.	2.4
> COC(=O)[C@H]1[C@H](CO)[C@H]2Cn3c(ccc(C4=CCCC4)c3=O)[C@@H]1N2C(=O)C1CCCCC1
    0.2	.	.	0.7	.	.	-0.6
> COC(=O)[C@H]1[C@H](CO)[C@H]2Cn3c(ccc(C4=CCCC4)c3=O)[C@@H]1N2CC1CCCC1
    -0.5	.	.	-2.7	.	.	9.8
> COc1ccc(OC(=O)N(C)C[C@@H]2OCc3ccccc3-c3c(n(C)c4ccccc34)C(=O)N([C@@H](C)CO)C[C@H]2C)cc1
    2.2	.	.	3.6	.	.	-2.5
> C/C=C/c1ccc(C2[C@@H]3CN(C(=O)C4CCOCC4)C[C@H]2N3)cc1 (some centres undefined)
    3.4&5.3	.	.	3.9&0.5	.	.	10.3&9.8
> COc1ccccc1CN1[C@@H](CO)[C@@H](c2ccccc2)C12CN(C(=O)Cc1ccccc1)C2
    -13.7	.	.	-0.9	.	.	-27.1
> CS(=O)(=O)N1C[C@@H]2N[C@H](C1)C2c1ccc(Br)cc1 (some centres undefined)
    0.1	.	.	-0.8	.	.	-2.8
> O=C(O)[C@@H]1[C@@H](CO)[C@@H]2Cn3c(ccc(-c4ccncc4)c3=O)[C@H]1N2C(=O)C1CCCC1
    4.3	.	.	-0.9	.	.	-1.1
> CS(=O)(=O)N1C[C@@H]2N[C@H](C1)C2c1ccccc1 (some centres undefined)
    0.3&3.8	.	.	-1.2&-0.8	.	.	0.2&5.4
> O=C(O)[C@H]1[C@H](CO)[C@H]2Cn3c(ccc(-c4ccncc4)c3=O)[C@@H]1N2C(=O)C1CC1
    4.5	.	.	-0.9	.	.	4.4
> CS(=O)(=O)N1C[C@@H]2C(c3ccc(Br)cc3)[C@H](C1)N2CC1CC1 (some centres undefined)
    -4.1&-1.6	.	.	0.2&-2.1	.	.	-10.6&-13.0
> C=CCN1[C@@H]2CN(CC(F)(F)F)C[C@H]1C2c1ccc(Br)cc1 (some centres undefined)
    -4.8&-0.9	.	.	0.7&2.9	.	.	-4.5&-5.2
> FC(F)(F)CN1C[C@@H]2N[C@H](C1)C2c1ccc(Br)cc1 (some centres undefined)
    -1.4	.	.	5.7	.	.	-14.5
> COC(=O)[C@@H]1[C@@H](CO)[C@@H]2Cn3c(ccc(C4=CCCCC4)c3=O)[C@H]1N2CC1CCCCC1
    -26.8	.	.	35.3	.	.	-60.4
> OC[C@@H]1Nc2ccc(C#Cc3cccnc3)cc2[C@H]2NCC[C@@H]12
    13.8	.	.	0.8	.	.	30.9
> CC(=O)N1C[C@@H]2C(c3ccc(Br)cc3)[C@H](C1)N2CC1CC1 (some centres undefined)
    -2.2&4.4	.	.	0.3&0.5	.	.	-5.1&2.0
> O=C(O)[C@@H]1[C@@H](CO)[C@@H]2Cn3c(ccc(C4=CCCCC4)c3=O)[C@H]1N2CCc1ccccc1
    -4.5	.	.	0.5	.	.	-2.0
> CCCNC(=O)[C@H]1[C@H](CO)[C@H]2Cn3c(cccc3=O)[C@H]2N1CC
    0.2	.	.	-1.6	.	.	1.4
> C/C=C/c1ccc(C2[C@@H]3CN(C(=O)C4CC4)C[C@H]2N3)cc1 (some centres undefined)
    3.7&5.7	.	.	0.2&8.5	.	.	19.1&27.6
> O=C(C1CC1)N1C[C@@H]2N[C@H](C1)[C@@H]2c1ccc(-c2ccncc2)cc1
    8.1	.	.	-0.9	.	.	6.1
> FC(F)(F)CN1CC2NC(C1)C2c1ccc(Br)cc1 (centres undefined)
    -1.5	.	.	-0.1	.	.	-0.6
> O=C(Cc1ccccc1)N1CC2(C1)[C@@H](c1ccccc1)[C@H](CO)N2Cc1cccc(F)c1
    -5.2	.	.	7.3	.	.	-15.2
> COC(=O)C1=C(c2ccc(F)cc2OCc2ccccc2)CC2CCC1N2C(=O)N1CCC(O)(c2ccc(Cl)cc2)CC1 (centres undefined)
    .	0.731	.	.	.	.	.
> COC(=O)C1=C(c2c(C)noc2C)CC2CCC1N2C(=O)NC1CC1 (centres undefined)
    .	0.684	.	.	.	.	.
> COC(=O)C1=C(c2ccc(OC(F)(F)F)cc2)CC2CCC1N2C(=O)N1CCC(C)CC1 (centres undefined)
    .	0.678	.	.	.	.	.
> COC(=O)C1=C(c2ccc(F)cc2F)CC2CCC1N2C(=O)NCCCOC(C)C (centres undefined)
    .	0.684	.	.	.	.	.
> COC(=O)C1=C(c2ccc(F)cc2OCc2ccccc2)CC2CCC1N2C(=O)NCc1ccc(F)cc1 (centres undefined)
    .	0.711	.	.	.	.	.
> COC(=O)C1=C(c2ccc(OC)c(OC)c2)CC2CCC1N2C(=O)NC1Cc2ccccc2C1 (centres undefined)
    .	0.67	.	.	.	.	.
> COC(=O)C1=C(c2ccc(C(C)=O)cc2)CC2CCC1N2C(=O)NCCO (centres undefined)
    .	0.701	.	.	.	.	.
> COC1C=CC23c4cc5c(cc4CO[C@]2(O)CN(C)C3C1)OCO5 (some centres undefined)
    .	0.662	.	.	.	.	.
> COC(=O)C1C[C@]2(C(=O)O)c3ccccc3N(OOSc3ccccc3)C2N1C(=O)OC (some centres undefined)
    .	0.686	.	.	.	.	.
> COC(=O)C1=C(c2cccc(OCc3ccccc3)c2)CC2CCC1N2C(=O)NCc1ccc(C(F)(F)F)cc1 (centres undefined)
    .	0.737	.	.	.	.	.
> CC(C(O)c1ccccc1)N(C)C(=O)Cc1ccccc1 (centres undefined)
    .	0.669	.	.	.	.	.
> COC(=O)C1=C(c2ccc(S(C)(=O)=O)cc2)CC2CCC1N2C(=O)NCCO (centres undefined)
    .	0.664	.	.	.	.	.
> COC(=O)C1=C(c2cccc(C#N)c2)CC2CCC1N2C(=O)N1CCCCC1 (centres undefined)
    .	0.702	.	.	.	.	.
> COC(=O)C1=C(c2ccc(S(C)(=O)=O)cc2)CC2CCC1N2C(=O)N1CCCC1 (centres undefined)
    .	0.689	.	.	.	.	.
> COC(=O)C1=C(c2ccc(F)cc2OCc2ccccc2)CC2CCC1N2C(=O)NCc1ccc(N(C)C)cc1 (centres undefined)
    .	0.744	.	.	.	.	.
> COC(=O)C1=C(c2ccc(OCc3ccccc3)cc2)CC2CCC1N2C(=O)NCCCc1ccccc1 (centres undefined)
    .	0.74	.	.	.	.	.
> COC(=O)C1=C(c2ccc(F)cc2F)CC2CCC1N2C(=O)NCCOc1ccccc1Cl (centres undefined)
    .	0.71	.	.	.	.	.
> COC(=O)C1=C(c2cccc(OCc3ccccc3)c2)CC2CCC1N2C(=O)NCCOc1ccc(OC)cc1 (centres undefined)
    .	0.754	.	.	.	.	.
> COC(=O)C1=C(c2ccc(OC)c(OC)c2)CC2CCC1N2C(=O)NCc1ccc(F)cc1 (centres undefined)
    .	0.707	.	.	.	.	.
> COC(=O)C1=C(c2cc3ccccc3o2)CC2CCC1N2C(=O)NCc1ccccc1 (centres undefined)
    .	0.682	.	.	.	.	.

Screens deposited in PubChem by several laboratories.
